Source: PubChem BioAssay
VACV Venus inh = inhibitors of vaccinia virus (Venus reporter); Vaccinia virus Venus reporter expression, fluorescence; Potency, µM (series often up to 36.5 µM), inactives show top-dose activity change, negative = inhibition, hits mostly inhibitors; hit rate 0.46% among 330,000; AID 720580; active means well fitted inhibition curve with a large enough effect; inconclusive means small, poorly fitted or top-dose-only effect; inactive means no such curve, though single readings can be large or run the other way; tested in A549 cells; also: nearly all actives have a fitted effect of over 30% in size; inactives centre near -10
Vaccinia mCherry = vaccinia inhibition (mCherry reporter); Potency, µM (titrated, usually from 36.5 µM), inactives show top-dose activity change, negative = inhibition, usual class: inhibitors; Vaccinia virus mCherry reporter infection, fluorescence; about a quarter of the inactives have no number; hit rate 0.63% among 310,000; AID 720579; active = well fitted inhibition curve with a large enough effect; inconclusive = small, poorly fitted or top-dose-only effect; inactive = no such curve, though single readings can be large or run the other way; tested in A549 cells; also: nearly all actives have a fitted effect of over 35% in size; inactives centre near -10
Numbers without * were called inactive; i = inactive; ? = inconclusive; nt = no result given; & = joins results of further samples; [ ] = remark or other dose. % is scaled to controls: 0 for no effect and ±100 for the full control effect; potency is read from the fitted curve at half-maximal effect.

SMILES	Vaccinia mCherry	VACV Venus inh
CCN1C(=O)[C@H]2[C@@H](c3ccc(C)cc3)N3C(=O)N(c4ccc(C(F)(F)F)cc4)C(=O)[C@@]3(Cc3ccccc3)[C@H]2C1=O	i	-24%
O=C(CC(C(=O)O)c1ccc(Cl)cc1)c1ccccc1 (stereo not given)	i	-2%
CN1CCN(Cc2c(O)ccc3c(=O)c(Oc4ccccc4Cl)c(C(F)(F)F)oc23)CC1	-14%	-4%
Cc1ccc(N2CC(c3nc4ccccc4n3C)CC2=O)cc1C (stereo not given)	-4%	-4%
CCc1ccc(C(=O)COC(=O)C(Cc2c[nH]c3ccccc23)NC(=O)c2ccc(CC)cc2)cc1 (stereo not given)	-18%	-10%
CCCCCCCC(=O)N/N=C/c1ccco1	-16%	-7%
O=C(CN1C(=O)S/C(=C\c2ccc(Cl)cc2)C1=O)NNC(=O)c1ccccc1O	-16%	-8%
CN(C)CCN(C(=O)CN1C(=O)c2ccccc2C1=O)c1nc2cc3c(cc2s1)OCCO3	i	-13%
COc1cc(NC(=O)CCn2nc(C)cc2C)cc(OC)c1OC	-13%	-9%
COC(=O)c1c(C)oc2ccc(N(C(=O)c3ccncc3)S(=O)(=O)c3ccc4ccccc4c3)cc12	-23%	-28%
NC(=S)NN=Cc1nccc2ccccc12	?	?
COCCOC(=O)C1=C(N)Oc2c(c(=O)oc3ccccc23)[C@@]12C(=O)Nc1ccccc12	-9%	-1%
CCOc1ccc(Br)cc1S(=O)(=O)NCc1ccncc1	1%	-5%
COCCOC(=O)C1=C(C)OC(N)=C(C#N)C1c1cc2cccc(C)c2nc1Cl (stereo not given)	1%	0%
COc1ccc(C(=O)NCCN2CCCC2)cc1[N+](=O)[O-]	-13%	-3%
Cc1ccccc1Cn1c(C(=O)O)c(CNCc2cccc(F)c2)c2ccccc21	i	-8%
Cc1c(Cl)cccc1NC(=O)CSc1ncccc1C(=O)Oc1ccccc1Cl	1%	-12%
O=C(Nc1ccc2c(c1)OCO2)N1CCN(c2ncc(C(F)(F)F)cc2Cl)CC1	-19%	?
CCN(CC(=O)Nc1c(F)cccc1F)C(=O)CCSc1ccc(C)cc1	-11%	-26%
CCN(CC)c1ccc(C(=O)OCC(=O)N2CCN(c3ccccc3)CC2)cc1	nt	-8%
C/C(=N/NC(=O)Cc1cccs1)c1ccco1	-15%	-4%
CCn1c(=O)c(C(=O)Nc2ccc(C(C)=O)cc2)nc2ccccc21	-1%	7%
CCn1cc(C(=O)N2CCc3ccccc32)c(=O)c2cc(S(=O)(=O)N3CCCCCC3)ccc21	i	-22%
Cc1cc(C)cc(NC(=O)CSc2nc3c(cnn3-c3ccc(F)cc3)c(=O)[nH]2)c1	-2%	4%
Cc1c(NS(=O)(=O)c2ccccc2)cc(Cl)c(O)c1C	-12%	-1%
CCOc1cc(/C=N/NC(=O)CCn2nc(C)cc2C)ccc1O	-18%	-18%
C[C@]12CCC(=O)C[C@@H]1CC[C@@H]1[C@@H]2CC[C@]2(C)C=CC[C@@H]12	-14%	-16%
CN(C)c1nc(NCc2ccccc2)nc(N/N=C/c2ccc(Cl)cc2Cl)n1	-3%	-3%
COc1ccccc1CNC(=O)CCC1N=C2c3ccccc3N=C(SCC(N)=O)N2C1=O (stereo not given)	?	-21%
COc1ccc(NC(=O)[C@H](NC(=O)[C@@H]2Cc3ccccc3CN2)c2ccccc2)cc1	-16%	-15%
O=C(CCNc1ccc(Cc2ccncc2)cc1)c1cccc([N+](=O)[O-])c1	-10%	-23%
Cn1nc([N+](=O)[O-])nc1S(C)(=O)=O	?	-22%
CCOC(=O)c1cnc2ccc(C)cc2c1Nc1ccc(N(CC)CC)cc1	?	?
Cn1c(=O)n(CCCOc2ccc(Cl)cc2)c2ccccc21	nt	-18%
Cc1ccc(CCNC(=O)c2nnn(-c3cc(C)cc(C)c3)c2N)cc1	-6%	-7%
Cc1c(Cl)c(C(=O)NNC(=S)Nc2ccc(F)cc2)nn1C	-18%	-11%
CCCCNS(=O)(=O)c1ccc(C)c(-c2nnc3c4ccccc4c(C)nn23)c1	-22%	-18%
COc1cccc(-c2cnc3c(NC=O)cc(-c4ccccc4Oc4ccccc4)cn23)c1	20%	-7%
CCOC(=O)C1(CCOc2ccccc2)CCN(Cc2cccn2-c2ncccn2)CC1	i	-11%
COc1ccc(S(=O)(=O)N2CCC(C(=O)NCc3ccccn3)CC2)cc1Cl	-20%	-5%
COc1cccc2c1cc1c(=O)n(CC(=O)NCc3ccc(C)o3)nc(C)n12	-14%	-7%
Cc1ccc(CSCc2nnc(SCC(=O)N3CCN(c4ccccc4)CC3)n2C)cc1	nt	?
OC(COCc1cccs1)CN1CCN(c2cccc(Cl)c2)CC1 (stereo not given)	-6%	0%
Cc1ccc(NC(=O)c2ccccc2Br)c(C(=O)c2ccccc2)c1	-18%	-12%
O=C(NCc1ccc(-n2cccc2)cc1)c1cccc(F)c1	-13%	-14%
O=S(=O)(c1ccccc1)N1CCN=C1SCc1c(F)cccc1Cl	-10%	-14%
C=Cn1ccnc1P(=S)(c1ccn(C)c1)c1nccn1C=C	-13%	-6%
COc1cc(-c2nc3c[n+](CC(=O)c4ccccc4)ccc3n2C)cc(OC)c1OC	i	-11%
O=C(CSc1cccc(C(F)(F)F)c1)NCc1ccccc1	-9%	-12%
CC(C)Nc1oc(-c2cccc3ccccc23)nc1C#N	-11%	-21%
COC(=O)CC1C(C)(C)C(=O)C2CC3=C4CC(=O)OC(c5ccoc5)[C@]4(C)CCC3[C@@]1(C)C2=O (stereo not given in full)	-13%	-5%
O=C(CN(C(=O)CCC(=O)Nc1nccs1)c1ccc2c(c1)OCCO2)NCc1ccco1	nt	-8%
O=C(Nc1ccc(Br)cc1)c1cccc(S(=O)(=O)Nc2ccccn2)c1	-13%	-17%
COc1ccccc1N1CCN(C(=O)c2ccc(COc3cccc4c3OC(C)(C)C4)cc2)CC1	?	?
O=C(/C(=C(\[O-])c1ccccc1)[n+]1ccc2ccccc2c1)c1ccccc1	-6%	6%
O=C(Nc1ccc(F)cc1F)c1cc(CN2CCOCC2)on1	10%	-7%
CN(C)c1cccc(C(=O)OCC(=O)NCC2CCCO2)c1 (stereo not given)	nt	-15%
COc1cc(CNC2CCCC2)cc(Cl)c1OCc1ccc(F)cc1	nt	?
CC1=NN(c2ccc(C(=O)O)cc2)C(=O)CC1	-14%	-19%
CC(C)c1ccc(CNc2nc(-c3ccco3)nn2S(=O)(=O)c2ccc(F)cc2)cc1	?	?

Following part
SMILES	Vaccinia mCherry	VACV Venus inh
COC(=O)C1=C(c2cccc(C#N)c2)C[C@@H]2CC[C@H]1N2C(=O)NCCCOC(C)C	i	-12%
COc1ccccc1CNC(=O)CCNS(=O)(=O)c1ccc2[nH]c(=O)oc2c1	i[7.34 µM]	0%[7.34 µM]
Cc1cccc(-n2cc(CNCCc3nc(C)cc(C)n3)c(-c3cccc(F)c3)n2)c1	i[7.34 µM]	-14%[7.34 µM]
COc1ccc(CCNC(=O)c2ccc(Cn3c(SCc4ccccc4)nc4cccnc43)cc2)cc1	-16%	-22%
CCOC(=O)COc1cc2c3c(c(=O)oc2cc1C)CCCC3	nt	-11%
CCOC(=O)c1c(NC(=O)CSc2nnnn2C)sc(C(=O)N(C)C)c1C	-8%	-6%
CC(C)C[C@H]1CNC(=O)C(=O)N1C[C@@H]1CCCN1C[C@H](Cc1ccccc1)N1C[C@H](Cc2ccccc2)N(CCc2ccccc2)C(=O)C1=O	?	-30%
COc1ccc(NC(=O)C2CCC(C(C)(C)C)CC2)cc1S(=O)(=O)N1CCCCC1 (stereo not given)	-19%	?
COc1ccc(OC)c(C(=O)COC(=O)c2cccnc2Cl)c1	-5%	-10%
Cc1ccc(S(=O)(=O)N2C[C@@H]3CCCC[C@@H]3[C@@H](C)[C@H]2c2cn(Cc3ccccc3)c3ccccc23)cc1	-25%	?
Cc1cc(C(C)(C)C)oc1C(=O)N(CC(=O)NC1CCCC1)c1cccc(C(F)(F)F)c1	?	?
CCCN1CCN(CCCNC(=O)Cn2c(-c3cccs3)cc3cc(Cl)ccc32)CC1	-14%	-21%
CC(C)(C)C1CCc2c(sc(NC(=O)c3ccccc3F)c2C(=O)N2CCCCC2)C1 (stereo not given)	-14%	-13%
Cc1cc2cc(CCNC(=O)CCc3ccccc3)c(=O)[nH]c2cc1C	-20%	-22%
COc1ccc(S(=O)(=O)Nc2ccc(Oc3ncccn3)c(Cl)c2)cc1	-7%	-10%
COc1cc(OC)cc(C(=O)Nc2nnc(SCC(=O)NCc3ccco3)s2)c1	-14%	-10%
COc1cc(-c2nc(-c3ccccc3)c(-c3ccc(F)cc3)[nH]2)cc2c1OCO2	-12%	-28%
Cc1cc(C(=O)Nc2cccc3c2O[C@@H](CN(C)S(=O)(=O)c2ccccc2)[C@H](C)CN([C@@H](C)CO)C3=O)n(C)n1	i	0%
Cc1ccc(NC(=O)C2=CCN(S(=O)(=O)c3ccc(F)cc3)CC2)c(C)c1	17%	-17%
O=C(O)CCC(=O)Nc1ccc(C(=O)OC2CCCCC2)cc1	i	-15%
O=C1OCCC1Sc1nnc(-c2ccc(Cl)cc2)n1Cc1ccccc1 (stereo not given)	-15%	-3%
COc1ccccc1CNN	-1%	8%
CCOC(CCn1c(SCC(=O)Nc2cc(C)on2)nc2ccccc2c1=O)OCC	-7%	-16%
CC1CN(C(=O)N2CCC(C(=O)N3CCN(c4ccccc4)CC3)CC2)c2cc(Cl)ccc2O1 (stereo not given)	-10%	-10%
CCCCN(C)CCn1c(=S)[nH]c2cc(OCC)c(OCC)cc2c1=O	i	?
COc1ccc(NC(=O)N(C)C[C@H]2Oc3c(NS(=O)(=O)c4ccc(OC)cc4)cccc3C(=O)N([C@H](C)CO)C[C@@H]2C)cc1	?	-24%
CCc1cc([N+](=O)[O-])cc(CC)c1N	nt	?
COc1ccc(CNC(=O)c2cnc3sc(N4CCOCC4)nn3c2=O)cc1	i	-1%
O=C(/C=C/c1ccccc1)N(Cc1cccs1)C1CCS(=O)(=O)C1 (stereo not given)	-3%	-12%
Cc1cccc(C)c1NC(=O)CSc1nc(-c2ccco2)cc(C(F)(F)F)n1	0%	-13%
CCCCn1nnnc1C(c1ccccc1)N1CCN(c2ccc(F)cc2)CC1 (stereo not given)	-9%	1%
CSc1ccc(CCNS(=O)(=O)c2csc(C(N)=O)c2)cc1	?	-19%
O=C(Cn1cc(COc2cccc([N+](=O)[O-])c2)nn1)c1ccc(O)cc1	i	-1%
O=C(Nc1ccc(F)cc1)C(c1ccncc1)N1CCN(C(=O)c2ccco2)CC1 (stereo not given)	-3%	-7%
CCCCN=C(N)/C(C(=O)OCC)=C(\O)c1ccc(OC)cc1	-29%	-24%
Cc1cccc(/C=N\NC(=O)c2sccc2-n2cccc2)c1	nt	-17%
CCOc1c(C=C(C#N)C#N)c2ccccc2n1CC	-1%	-14%
Cc1cc(C)n2ncc(C(=O)NC3CCCCC3)c2n1	i	-15%
CCOC(=O)C1(CCCc2ccccc2)CCN(C(=O)CCc2cnn(C)c2)CC1	i	-7%
C=CCOC(=O)Nc1c(C(=O)OC)[nH]c2ccccc12	nt	15%
CC(=O)Nc1cccc(NC(=O)CCNC(=O)c2ccccc2)c1	-11%	-8%
O=c1[nH]c2ccccc2n1CCCN1CCC(n2c(=O)[nH]c3cc(Cl)ccc32)CC1	-27%&-17%&-9%&-20%	-20%&-25%&-25%&-13%
CC(=O)N1CCCC1c1nc2ccccc2n1Cc1ccccc1 (stereo not given)	-8%	5%
Cc1noc(C)c1NC(=O)N(C)C[C@H]1Oc2ccc(NC(=O)NC(C)C)cc2C(=O)N([C@H](C)CO)C[C@@H]1C	-13%	-3%
Cc1ccc(CONC(=O)c2ccc(OC(F)F)cc2)cc1	i	-9%
COC(=O)C1=C(C)OC(N)=C(C#N)C1c1cccnc1 (stereo not given)	-5%	-5%
COc1ccc(C(=O)Nc2ccccc2)cc1S(=O)(=O)NCc1ccco1	-6%	-7%
Cc1cc(=O)oc2c1c(C)nn2-c1ccc(Cl)cc1	-6%	5%
COc1cccc(C(=O)Nc2ccc3c(c2)C(=O)N(CC2CCCO2)C3=O)c1 (stereo not given)	-3%	-22%
O=c1[nH]cnc2c1ncn2-c1ccc(N(CCO)CCO)cc1	i	-6%
CC1=C(C#N)C(c2cccnc2)C2=C(N1)c1ccccc1C2=O (stereo not given)	-12%	-2%
COc1ccc(-c2nc3n(n2)C(=O)CC(c2ccc(Cl)cc2)S3)cc1 (stereo not given)	-23%	-16%

Laid out differently: entries from further up
> Cc1cccc(/C=N\NC(=O)c2sccc2-n2cccc2)c1
  Vaccinia mCherry = nt; VACV Venus inh = -17%
> C=CCOC(=O)Nc1c(C(=O)OC)[nH]c2ccccc12
  Vaccinia mCherry = nt; VACV Venus inh = 15%
> Cc1ccc(CONC(=O)c2ccc(OC(F)F)cc2)cc1
  Vaccinia mCherry = i; VACV Venus inh = -9%
> CCCCN=C(N)/C(C(=O)OCC)=C(\O)c1ccc(OC)cc1
  Vaccinia mCherry = -29%; VACV Venus inh = -24%
